PINK1 expr mod: A Quantitative High throughput Screen to Identify Chemical Modulators of PINK1 Expression. PINK1 immunofluorescence, high-content cytometry, 24 h. Potency, µM (doses to about 76.6 µM), for the others: top-dose activation (PINK1 increase), most hits filed as activators. actives 0.2% (n = 410,000). AID 624263, 2012; active = well fitted activation curve with a large enough effect; inconclusive = small, poorly fitted or top-dose-only effect; inactive = flat fitted curve, though single readings scatter; cell line not stated here;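 further: % of control where 0% means no effect; nearly all actives have a fitted effect of over 65% in size; a mitochondrial uncoupler was the plate control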
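A stable cell line was treated with compounds at 5 concentrations for 24 hours, with CCCP as control. PINK1 levels and mitochondrial localization were measured by immunofluorescence with mitochondrial, cell and nuclear markers after fixation, read by laser-scanning cytometry.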
ClpP mod: qHTS Assay for Activators of ClpP; ATP-dependent Clp protease proteolytic subunit (Bacillus subtilis (strain 168)), P80244; purified B. subtilis ClpP, FRET peptide cleavage, 20 min; Potency, µM (doses to about 57.5 µM), for inactives: at the highest dose activity change, negative = active; actives 1.9% (n = 340,000); AID 651965, 2013; active = well fitted falling curve with a large enough effect; inconclusive = small, poorly fitted or top-dose-only effect; inactive = no such curve, though single readings can be large or run the other way; further: the source files actives as falling curves though it sought activators and does not explain the sign; nearly all actives have a fitted effect of over 65% in size; many hits overshoot -100%
Target sequence (P80244 whole entry, looked up): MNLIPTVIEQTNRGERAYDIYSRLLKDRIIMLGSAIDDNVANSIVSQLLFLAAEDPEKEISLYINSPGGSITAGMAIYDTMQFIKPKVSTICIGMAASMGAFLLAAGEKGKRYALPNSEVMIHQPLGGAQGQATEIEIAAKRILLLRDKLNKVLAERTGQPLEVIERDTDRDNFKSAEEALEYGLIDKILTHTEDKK
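Buffer: 100 mM Tris/HCl pH8, 100 mM KCl, 0.05% low protease BSA, 2.5% glycerol, 0.01% Tween-20. ClpP 10 microg/mL final; 20 min RT; delta FRET normalized to ADEP and DMSO controls.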
The depositor's hits bear a star; u = inconclusive. Potency means the concentration at half of the fitted maximal effect.

SMILES | PINK1 expr mod | ClpP mod
Cc1ccc(CCNC(=O)CCn2nc(-c3ccc(Cl)cc3)ccc2=O)cc1 | -4.5% | u
Cc1nc(-c2ccc(S(=O)(=O)N3CCN(c4cc(Cl)ccc4C)CC3)cc2)co1 | -5.3% | -7.7%
CCNC(=O)C1CCN(c2nnc(C)c3c(C)n(-c4ccc(OC)cc4)nc23)CC1 | 2.4% | -17.2%
Cc1ccc(-c2onc(C)c2C)cc1S(=O)(=O)N1CCc2ccccc21 | 1.7% | -2.7%
CCc1cccc(NC(=O)CCS(=O)(=O)c2ccc3nc(C)sc3c2)c1 | 0.2% | -1.2%
CC(=O)c1[nH]c(C)c(C(=O)NCCc2ccc(C)cc2)c1C | 0.8% | 1.5%
COc1ccc(Nc2ncnc3c2cnn3-c2ccc(C)cc2C)cc1 | 1.7% | -3.0%
CCCN1CNc2c(c(=O)[nH]c(=S)n2CCc2cccc(OC)c2OC)C1 | 0.5% | 2.3%
Cc1cc(C)c(NC(=O)CSC2=Nc3ccccc3C3=NC(CC(=O)NCc4cccs4)C(=O)N23)c(C)c1 (stereo not given) | 0.5% | -27.9%
COc1ccc(Cl)cc1NC(=O)CCn1nc(C)cc1C | -0.6% | 0.7%
CC(=O)N(c1ccc(Cl)cc1)C1SC(=O)N(c2ccc(C)cc2)C1=O (stereo not given) | 0.6% | -1.4%
Cc1ccc(CNC(=O)CCCn2c(=O)c3ccccc3n(Cc3ccccc3C)c2=O)cc1 | 4.0% | -5.1%
CCOc1ccc(C2=NC(c3cccs3)=Nc3ccc(C(C)C)cc3N2)cc1 | -0.2% | -3.3%
CCc1ccc(NC(=O)CSc2ccc(-c3sc(-c4ccccc4)nc3C)nn2)cc1 | 1.1% | -7.0%
Cn1c(=O)c2c(-c3ccccc3)n3c(c2n(C)c1=O)C(c1ccccc1[N+](=O)[O-])Nc1ccccc1-3 (stereo not given) | 2.9% | -2.5%
COc1ccc2oc(=O)c(C(=O)NCCc3c(C)[nH]c4ccc(C)cc34)cc2c1 | -0.3% | 0.3%
COC(=O)COc1ccc(Oc2nc(NC(C)(C)C)nc(N3CCOCC3)n2)nn1 | -0.2% | -1.4%
O=C(Nc1ccccc1OCc1cc(=O)n2ccccc2n1)c1ccccc1F | -6.6% | 53.6%
COc1ccccc1-n1c(=O)n(C)c2c(C(N)=O)nc(-c3cccc(OC)c3OC)nc21 | 0.1% | 0.0%
CCCN(CCC)C(=O)CN1C(=O)CSc2ccc(S(=O)(=O)N3CCC(C)CC3)cc21 | -1.1% | -2.4%
Nc1nc(Nc2ccccc2F)sc1C(=O)c1ccc(Cl)cc1 | 1.4% | -2.1%
Cc1cccc(Cn2c(-c3cccs3)nc3ccccc32)c1 | -4.6% | u
CCC(=O)N1CCc2cc(S(=O)(=O)NCCC(=O)NCc3ccc(C)cc3)ccc21 | 2.3% | -6.1%
CCc1ccc(CNC(=O)c2cc3c(=O)n(CC)c4ccccc4c3s2)cc1 | 2.7% | u
CCC(CC)C(=O)Nc1ccc2nc(SCc3ccccc3)sc2c1 | 2.3% | -3.5%
COc1ccc(CCNC(=O)CN2C(=O)COc3ccccc32)cc1OC | 0.1% | 0.2%
COc1ccc(OC)c(NC(=O)c2nnn(CC(=O)Nc3ccc(C(C)C)cc3)c2N)c1 | 3.7% | 4.1%
N=c1c(C(=O)NCC2CCCO2)cc2c(=O)n3ccccc3nc2n1CCCO (stereo not given) | -0.7% | 4.5%
Cc1ccc(-n2nc(CO)c(C(=O)NCCO)n2)cc1 | -0.7% | 8.91µM*
Cc1ccc2c(Sc3ccc(Cl)cc3)c(C(=O)N3CCCCC3)[nH]c2c1 | 7.3% | 1.1%

Pulled by structure from the entries so far (six):
SMILES | PINK1 expr mod | ClpP mod
CCCN1CNc2c(c(=O)[nH]c(=S)n2CCc2cccc(OC)c2OC)C1 | 0.5% | 2.3%
Cc1ccc(CNC(=O)CCCn2c(=O)c3ccccc3n(Cc3ccccc3C)c2=O)cc1 | 4.0% | -5.1%
CCc1cccc(NC(=O)CCS(=O)(=O)c2ccc3nc(C)sc3c2)c1 | 0.2% | -1.2%
CCc1ccc(NC(=O)CSc2ccc(-c3sc(-c4ccccc4)nc3C)nn2)cc1 | 1.1% | -7.0%
CCC(CC)C(=O)Nc1ccc2nc(SCc3ccccc3)sc2c1 | 2.3% | -3.5%
Cc1ccc2c(Sc3ccc(Cl)cc3)c(C(=O)N3CCCCC3)[nH]c2c1 | 7.3% | 1.1%

The list continues:
SMILES | PINK1 expr mod | ClpP mod
Cn1c(=O)c2c(-c3ccccc3Br)n(Cc3ccccc3)cc2n(C)c1=O | 0.3% | -20.6%
Cc1ccc2c(c1)NC(=O)c1cccnc1O2 | 3.2% | -1.4%
O=C(C[n+]1cccc2cc(Cl)ccc21)c1ccc2c(c1)CCCC2 | 0.9% | -2.4%
Cc1cc(C)c(S(=O)(=O)Nc2ccc(-c3ccc(N4CCCCC4)nn3)cc2)cc1C | 0.7% | -4.9%
O=C1COc2ccccc2C(c2nc3ccccc3[nH]2)N1Cc1ccccc1 (stereo not given) | 1.2% | 2.0%
Cc1ccc(CCNC(=O)c2ccc3c(c2)nc2n3CCCCC2)cc1 | 3.1% | -0.9%
CCOC(=O)c1ccc(NC(=O)CCCc2nc(-c3cc(OC)c(OC)c(OC)c3)no2)cc1 | -0.8% | -1.3%
Cc1ccc(NC(=O)CN2C(=O)C(C)(C)c3cc(S(=O)(=O)N4CCCCC4)ccc32)c(Br)c1 | 3.1% | 0.0%
Cc1ccc(CN2CCCn3nc(C(=O)NC(C)C)cc3C2=O)cc1 | 0.9% | -3.5%
Cc1ccc(-c2nnc3c4ccccc4c(C)nn23)cc1NC(=O)c1cccc(Br)c1 | -0.5% | -26.2%
CCCn1c(=O)n(-c2ccccc2)c(=O)c2sc3ccccc3c21 | -0.3% | 4.1%
CCCCOc1ccc(-c2cc3c(=O)n(CC(=O)Nc4ccc(Cl)cc4Cl)ccn3n2)cc1 | 0.4% | -0.7%
Cc1ccc2[nH]c(=O)c3cc(C(=O)NCCCN4CCC(C)CC4)sc3c2c1 | -1.2% | 12.6µM*
CCCS(=O)(=O)N1CCC(N2CCN(Cc3ccc(C)cc3)C(=O)C2=O)CC1 | 2.5% | -1.8%
N#Cc1c(Nc2cccc(F)c2)sc(C(=O)c2ccc(Cl)cc2)c1N | 0.1% | 0.4%
O=C1CCCC2=C1C(c1ccc(Cl)cc1)N=C(Nc1nc3ccccc3o1)N2 (stereo not given) | 0.1% | 4.7%
CCOc1ccc(N2CC(NC(=O)C3CCCCC3)CC2=O)cc1 (stereo not given) | 0.9% | 0.2%
CC[C@@H]1Cc2[nH][nH]c(=O)c2[C@@H](c2ccc(Cl)cc2)O1 | 3.4% | -2.3%
CCCCNC(=O)Cn1c(SCc2cccc(C)c2)nc2ccncc21 | 0.5% | -21.3%
CCOc1ccc(C2C(C(=O)Nc3ccc(OC)cc3)=C(C)Nc3nc(CCCO)nn32)cc1 (stereo not given) | -0.1% | 2.4%
Cc1ccc2[nH]c(=O)c3cc(C(=O)NC4CCC(C)CC4)sc3c2c1 (stereo not given) | 0.1% | -1.7%
CCOC(=O)c1c(NC(=O)c2cc(=O)c3c(C)cc(C)cc3o2)sc(C)c1C | 1.3% | 0.8%
CCC(=O)NNc1ncnc2c1cnn2-c1ccc(C)c(Cl)c1 | 4.6% | -26.5%
CCCOc1ccc(C(=O)Nc2ccc3nn(-c4ccc(OC)c(Cl)c4)nc3c2)cc1 | 2.8% | 3.7%
CCc1ccccc1N(C)C(=O)c1cc2c(=O)oc3ccccc3c2s1 | 0.5% | 0.4%
COc1cc(OC)c(NC(=O)N2CCSc3ccccc32)cc1Cl | -1.2% | -3.2%
Cc1ccc(C)c(NC(=O)CN2C(=O)C3(SCC(=O)N3c3ccc(C)c(C)c3)c3ccccc32)c1 (stereo not given) | -0.3% | -1.9%
CCOCCCNC(=O)C(c1ccc(OC)cc1)N(Cc1cccs1)C(=O)c1ccc(NC(C)=O)cc1 (stereo not given) | 13.1% | -2.8%
Cc1c(C(=O)Nc2cccc(F)c2)oc2c1-c1nn(Cc3c(F)cccc3Cl)cc1CC2 | 0.0% | -5.9%
Cc1ccccc1OCC(O)Cn1c(=N)n(CCN2CCCCC2)c2ccccc21 (stereo not given) | 0.8% | -0.5%
COc1ccccc1NC(=O)Cn1c(=O)n(Cc2ccc3c(c2)OCO3)c(=O)c2oc3ccccc3c21 | 0.3% | -3.0%
Cc1ccc(S(=O)(=O)N2CCCC(c3nc4c(nnn4Cc4ccc(OC(F)(F)F)cc4)c(=O)[nH]3)C2)cc1 (stereo not given) | 0.1% | -1.0%
CCOC(=O)c1noc2ncnc(Nc3ccc(F)cc3F)c12 | 0.4% | 0.7%
Cc1cc2oc(C(=O)Nc3c(C)n(C)n(-c4ccccc4)c3=O)cc(=O)c2cc1C | 1.4% | -0.2%
COCCCNc1nc2c(c(=O)n(C)c(=O)n2C)n1Cc1ccccc1 | -1.7% | 2.4%
O=C(CN1C(=O)CSc2ccc(S(=O)(=O)N3CCCC3)cc21)NCc1ccccc1Cl | -0.4% | -10.8%
CCOc1cccc(C2CC(=O)Nc3cc4c(cc32)OCCO4)c1 (stereo not given) | 7.0% | -3.5%
CCc1ccc(-n2c(SCc3nc(-c4cc(OC)ccc4OC)no3)nnc2-c2ccccc2)cc1 | -1.8% | -3.4%
COCCCNC(=O)CSc1nc2cc3c(cc2c(=O)n1CCCCCC(=O)NCCc1ccc(OC)c(OC)c1)OCO3 | 1.0% | -10.0%
CCn1c(CN2CCN(C)CC2)nc2cc(NC(=O)c3ccc([N+](=O)[O-])cc3)ccc21 | 1.4% | -1.8%
CCN(CC)S(=O)(=O)c1ccc(NC(=O)[C@H](CSCc2ccccc2)N2Cc3ccccc3C2=O)cc1 | -2.0% | -0.8%
Cc1cc(OCC(=O)NCC2(N3CCN(C)CC3)CCCCC2)cc(C)c1Cl | 4.3% | 0.4%
Cc1ccc(N2CCN(C(=O)c3c(C)oc4ncnc(N5CCOCC5)c34)CC2)c(C)c1 | 1.0% | 0.7%
COc1cccc(NC(=O)Cn2c(=O)n(CCCCC(=O)NCCc3ccccc3)c(=O)c3ccccc32)c1 | 2.0% | -6.1%
O=C(Nc1nnc(Cc2ccc(Cl)cc2)s1)C1CCN(C(=O)c2ccco2)CC1 | 0.3% | 1.0%
Cc1c(C)n(Cc2ccccc2)c2ccc(C(=O)N3CCN(c4ccccc4)CC3)cc12 | -0.6% | -24.5%
O=S(=O)(Nc1cccc(-c2ccc(N3CCOCC3)nn2)c1)c1ccc(F)c(C(F)(F)F)c1 | -0.8% | -1.0%
NCCSc1nc2ccccc2s1 | 0.2% | -3.5%
Cc1ccccc1-c1nc(CS(=O)(=O)CC(=O)NCC(C)c2ccccc2)c(C)o1 (stereo not given) | 2.4% | -4.5%
Cc1cc(C)c(Cn2c(C)c(CNCc3ccccc3C)c(C(=O)O)c2C)c(C)c1 | -0.3% | 0.2%
CCCSc1ncnc2c1c(-c1ccccc1)cn2-c1ccccc1OC | 0.3% | -6.2%
N#Cc1ccc(NC(=O)c2ccc3c(c2)nnn3C2CCCC2)cc1 | -0.5% | -1.7%
CCOCCCNC(=O)C1CCN(c2nc3ccc(Cl)cc3[nH]2)CC1 | 0.4% | -0.6%
O=C(Nc1cccc(C(F)(F)F)c1)Nc1ccc2snnc2c1 | u | -3.2%
CCc1ccc(NC(=O)COCc2cc(-c3ccc(F)cc3)on2)cc1 | -0.4% | 0.5%
Cc1ccc2c(c1)N(C(=O)Nc1cccc3c1CCCC3)CC(C)O2 (stereo not given) | 0.8% | -6.0%
CCN1CCN(c2ncnc3c2cnn3-c2ccc(C)cc2)CC1 | 0.4% | u
CCOCCn1ccc2c(OCC(=O)NCc3ccc(C)cc3)cccc2c1=O | -1.2% | u
Oc1ccc(Br)cc1C1C=C(c2ccc3c(c2)OCO3)NC(c2ccc(Cl)cc2)N1 (stereo not given) | 1.9% | 0.4%
COc1ccc(OC)c(/C=C/c2ccccc2)c1 | 0.0% | 4.5%

Next section:
SMILES | PINK1 expr mod | ClpP mod
O=C(O)c1ccc(NC(=O)c2ccc(Br)c(S(=O)(=O)N3CCCC3)c2)cc1 | 1.3% | 0.2%
C[C@@H](NC(=O)[C@@H]1CCCN1C(=O)[C@@H]1CCCN1C(=O)OC(C)(C)C)c1ccccc1 | -0.1% | -2.3%
O=C(Nc1ccc2nc(-c3cccs3)c(-c3cccs3)nc2c1)N1CCCC1 | -0.1% | 4.1%
O=C(Nc1cccc(F)c1)C1CCN(S(=O)(=O)c2ccc3[nH]c4c(c3c2)CCCCC4)CC1 | 1.6% | u
CC(C)CCn1c(=O)c2sccc2n2c(CCCC(=O)NCCc3ccccc3)nnc12 | 2.7% | -19.1%
Cc1cc(C)cc(Cn2cc(CN3CC(N4CCSCC4)CS3(=O)=O)nn2)c1 (stereo not given) | -1.1% | -3.1%
COc1ccc(Cl)cc1NC(=O)CN(c1cccc(C)c1C)S(=O)(=O)c1ccccc1 | 0.1% | -5.4%

Source: PubChem BioAssay (National Center for Advancing Translational Sciences (NCATS))

Not all compounds are listed. The share of hits here may be higher or lower than overall.
